FGF22 binding: FGF22 (human) thermal shift binding. recombinant FGF22 thermal shift, SYPRO orange fluorescence; percent of sucrose octasulfate shift, DMSO zero. calls only at 9.99 µM. 340,000 tested, 1.5% active. AID 651658;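 active = melting point raised past a set limit in the mean and every replicate; three in four hits are not shown here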
Target sequence (Q9HCT0 whole entry, looked up): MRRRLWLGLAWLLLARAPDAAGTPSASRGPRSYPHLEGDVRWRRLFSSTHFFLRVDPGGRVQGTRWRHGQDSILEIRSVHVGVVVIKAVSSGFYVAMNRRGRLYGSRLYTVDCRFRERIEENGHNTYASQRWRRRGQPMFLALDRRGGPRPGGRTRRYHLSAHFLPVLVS
rRNA inh HTS: selective bacterial rRNA inhibition in E. coli | E. coli WT GFP vs humanized-ribosome RFP mutants, fluorescence, 24 h; active compounds read low; DMSO median 0, no signal -100 | GFP signal change (wild-type ribosome), % (no concentration beside the values) | 350,000 tested, 1.6% active | AID 720706;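 active = significant combined selectivity score with lowered wild-type GFP, culture density cut under 30%, mutant RFP and density less affected; inactive = any of these conditions unmet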; note: one replicate is shown; some compounds called inactive have numbers as strong as hits
T cruzi inh: T. cruzi replication inhibition; AID 1885; inhibition, % (no concentration beside the values); T. cruzi beta-gal in NIH3T3, luminescence, 90 h; 300,000 tested, 1.4% active;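 active = mean inhibition across valid replicates above about 55%, limit read from the data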;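 note: signal also drops with host cell toxicity which is not excluded here; 0% = plate median of DMSO wells and 100% = zero luminescence signal; higher percent means less beta-gal luminescence so fewer parasites; stock transfer was 50 nL into about 50 µL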
Ecoli growth: inhibitors of Escherichia coli growth; OD600, 23 h; active compounds read low; OD600 absorbance (no concentration beside the values); 330,000 tested, 0.21% active;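 active = OD600 absorbance below the run mean of sample wells minus 3.6 SD, in any replicate, cut at about 0.56 in these data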;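 note: stock transfer was 300 nL into about 60 µL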
AF4-AF9 inh: blocks AF4 peptide binding to human AF9. P42568. 350,000 tested, 0.47% active. inhibition, % at 10 µM. AlphaScreen, biotin-AF4 peptide binding to FLAG-AF9;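 active = every replicate reaching a set inhibition limit, whatever the replicate mean, cut at about 25% in these data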;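 note: 0% = plate neutral control median and 100% = total signal loss; the record names both 10 and 1 µM as test concentration; the first replicate is given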
Target sequence (P42568 whole entry, looked up): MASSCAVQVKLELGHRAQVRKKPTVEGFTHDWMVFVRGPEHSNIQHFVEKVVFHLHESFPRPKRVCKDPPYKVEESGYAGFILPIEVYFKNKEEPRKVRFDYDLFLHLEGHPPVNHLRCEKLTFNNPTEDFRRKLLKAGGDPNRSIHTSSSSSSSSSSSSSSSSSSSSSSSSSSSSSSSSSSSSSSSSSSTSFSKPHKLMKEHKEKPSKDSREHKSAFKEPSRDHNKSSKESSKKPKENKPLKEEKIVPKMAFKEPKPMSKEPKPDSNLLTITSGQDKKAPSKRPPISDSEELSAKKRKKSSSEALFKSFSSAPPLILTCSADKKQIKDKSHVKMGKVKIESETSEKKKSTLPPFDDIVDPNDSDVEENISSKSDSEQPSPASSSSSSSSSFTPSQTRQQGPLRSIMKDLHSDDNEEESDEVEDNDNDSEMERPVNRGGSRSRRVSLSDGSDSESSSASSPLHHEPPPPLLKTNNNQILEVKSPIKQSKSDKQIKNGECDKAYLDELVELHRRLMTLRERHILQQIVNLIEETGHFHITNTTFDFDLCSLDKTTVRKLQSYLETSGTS
Bfl-1 A1 inh: inhibitors of the anti-apoptotic protein A1, read as caspase activation; MEF A1-2A-BIM cells, Caspase-Glo 3/7 luminescence, 3 h; percent of clofoctol response, vehicle zero; caspase activation, % (test concentration not listed); 330,000 tested, 0.066% active;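 active = over half of replicate activation scores above 10%, or exactly half above 10 with the replicate mean above 10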;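 note: wells of about 30 µL received 50 nL stock; many hits fall short of the cut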
UCH37 inh: blocks the human deubiquitinase UCH37; inhibition, % (concentration not given with the values); Q9Y5K5; 330,000 tested, 0.33% active; purified proteasome/UCH37, Ub-AMC cleavage fluorescence;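 active = mean of two replicates above 20%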;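 note: 0% = compound-free wells with enzyme and 100% = wells lacking proteasome; stock transfer was 100 nL into about 20 µL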
Target sequence (Q9Y5K5 whole entry, looked up): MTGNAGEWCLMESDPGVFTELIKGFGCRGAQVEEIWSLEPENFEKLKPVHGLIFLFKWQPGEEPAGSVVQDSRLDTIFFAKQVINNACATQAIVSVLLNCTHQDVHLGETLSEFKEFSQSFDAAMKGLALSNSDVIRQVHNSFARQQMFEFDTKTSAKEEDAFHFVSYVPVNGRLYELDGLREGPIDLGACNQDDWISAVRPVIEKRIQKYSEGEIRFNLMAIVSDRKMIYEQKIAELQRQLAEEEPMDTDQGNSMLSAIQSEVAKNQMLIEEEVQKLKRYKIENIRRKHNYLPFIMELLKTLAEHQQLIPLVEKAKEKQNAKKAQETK
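Material: Human UCH37 enzyme supplied as purified proteasome complex | Schedule: 30 min compound-proteasome preincubation then 25 min substrate reaction, room temperature | Detection: AMC fluorescence from Ub-AMC cleavage, excitation 355 nm, emission 460 nm | Benchmarks: Wells without proteasome as full block, compound-free enzyme plus substrate as uninhibited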
Beta cell apopt: beta cell apoptosis inhibition; INS-1E cytokine-induced death, ATP luminescence, 48 h; percent of positive-control rescue, neutral wells zero; protection from apoptosis, % (test concentration not listed); 300,000 tested, 0.8% active; AID 435005;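 active = all replicates at 75% or more, or half of them and the mean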;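 note: 0% = cytokine-treated negative control wells and 100% = positive control rescue; higher means more ATP so stronger rescue from cytokine killing; wells of about 40 µL received 100 nL stock; the first replicate is given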
rRNA inh HTS OD600: further read-out of rRNA inh HTS, marked with its call; OD600 change, %; measured here: OD600 growth;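 optical density of the mix in the first replicate; 0 = DMSO median and -100 = no signal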
rRNA inh HTS RFP: second read-out of rRNA inh HTS, no call of its own (marks repeat the call); RFP signal change, %; measured here: RFP humanized mutant strains;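 first replicate; 0 = DMSO median and -100 = no signal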
Starred values were filed as active, the others as inactive; i = inactive; x = no result given. Not all compounds are listed; rates above refer to the full screens.

SMILES	FGF22 binding	rRNA inh HTS	rRNA inh HTS OD600	rRNA inh HTS RFP	T cruzi inh	Ecoli growth	AF4-AF9 inh	Bfl-1 A1 inh	UCH37 inh	Beta cell apopt
O=C(NN1CC(=O)N(c2cc(Cl)cc(Cl)c2)CC1=O)c1sccc1Cl	i	-19	-9	-1.8	0	0.66	x	-0.2	3.0	-1
CC1CCCCC1NC(=O)NC(=O)COC(=O)C1=NN(c2ccccc2)C(=O)CC1 (centres undefined)	i	9	9	-0.2	x	0.7	-0.1	x	0.2	x
COc1ccc(NC(=O)CN(C)C(=O)CNC(=O)c2ccc3c(c2)OCO3)cc1	i	15	16	1.0	-8	0.71	-1.7	-0.5	3.6	-3
Cc1ccc(Oc2ccc(N)cc2)cc1	x	x	x	x	17	0.64	x	1.1	3.2	-8
COC(=O)c1ccc(Cl)c(NC(=O)CN2CCC(C)CC2)c1	x	x	x	x	29	0.66	x	0.1	-0.1	0
O=C(/C=C/c1ccc2c(c1)OCO2)NCCSCc1cccc(Cl)c1	x	x	x	x	-2	0.66	x	-0.6	-7.1	0
N#C/C(=C\c1ccc(N2CCCCC2)o1)C(=O)Nc1cccc(Br)c1	x	x	x	x	27	0.74	x	0.1	4.0	-2
COC(=O)C1=C(C)NC(=O)C1(NS(=O)(=O)c1ccc(NC(C)=O)cc1)C(F)(F)F (centres undefined)	x	x	x	x	0	0.66	x	-0.5	6.2	-3
CC(=O)c1ccc(S(=O)(=O)N2CCCCC2C(=O)O)cc1 (centres undefined)	i	11	21	0.9	0	0.7	-1.7	3.5	1.2	-1
Cc1nc(-c2ccc(F)cc2)c(CC(=O)N2CCN(S(=O)(=O)c3ccc(F)cc3)CC2)s1	i	1	9	2.0	7	0.71	-0.4	1.1	-1.2	x
O=C(O)c1cccc2cccnc12	x	x	x	x	-4	0.77	x	-0.1	1.7	-6
COc1ccc(OC)c(/C=N/NC(=O)CNC(=O)c2cccc3ccccc23)c1	i	-1	-3	0.5	-7	x	0.0	0.8	x	12
O=C(/C=C/c1ccccc1)Nn1c(-c2cccs2)nc2ccccc2c1=O	i	10	5	-3.2	18	0.7	0.8	0.2	1.9	-1
O=C(CCN1CCN(c2ccccc2)CC1)c1ccc(Br)cc1	i	9	18	0.0	62*	0.64	-1.1	-0.8	4.3	-9
O=C(c1ccccc1)c1ccc(OCCn2cnc3ccccc3c2=O)cc1	x	x	x	x	5	0.7	x	-0.2	0.0	-2
CCn1c(N2CCN(C(=S)NCCc3ccccc3)CC2)nc2ccccc21	x	x	x	x	27	0.71	x	1.3	-0.2	8
Cn1c(SCC(=O)NCCc2ccccc2)nnc1-c1ccncc1	x	x	x	x	3	0.75	x	-0.8	-0.9	-4
Cc1cc(NC(=O)CSc2nnc(Cc3cccn3C)n2CCc2ccccc2)no1	i	-4	-11	5.1	x	0.76	-3.7	-0.6	4.4	-3
CCCCNC(=O)Oc1ccc(C(=O)N2c3ccccc3NC(=O)C2C)cc1 (centres undefined)	i	2	1	-1.1	8	0.66	-14	-0.3	0.7	-4
O=C1N/C(=N/N=C/c2ccco2)SC1Cc1ccccc1 (centres undefined)	i	6	1	1.6	-5	x	-1.1	1.1	x	-1
CC(=O)N1CCN(CC(=O)O)CC1	x	x	x	x	-11	0.73	x	1.2	2.7	-4
CCOC(=O)C1(CCCc2ccccc2)CCN(Cc2cn(CC)nc2C)CC1	x	-9	-10	-0.3	-28	0.71	2.7	0.3	4.0	7
COC(=O)c1cc(NC(=O)c2c(C)noc2C)ccc1N1CCOCC1	i	8	9	3.2	-13	0.7	-1.8	-0.4	2.5	2
COc1cc(OC)c(OC)cc1CNCc1ccc2c(c1)OCO2	i	-4	1	-15	-4	0.68	-0.6	2.9	2.9	-2

Among those listed so far, these contain bromine.
SMILES	FGF22 binding	rRNA inh HTS	rRNA inh HTS OD600	rRNA inh HTS RFP	T cruzi inh	Ecoli growth	AF4-AF9 inh	Bfl-1 A1 inh	UCH37 inh	Beta cell apopt
N#C/C(=C\c1ccc(N2CCCCC2)o1)C(=O)Nc1cccc(Br)c1	x	x	x	x	27	0.74	x	0.1	4.0	-2
O=C(CCN1CCN(c2ccccc2)CC1)c1ccc(Br)cc1	i	9	18	0.0	62*	0.64	-1.1	-0.8	4.3	-9

Carrying on:
SMILES	FGF22 binding	rRNA inh HTS	rRNA inh HTS OD600	rRNA inh HTS RFP	T cruzi inh	Ecoli growth	AF4-AF9 inh	Bfl-1 A1 inh	UCH37 inh	Beta cell apopt
Cc1ccc(CNC(=O)CCS(=O)(=O)c2ccc3nc(C)sc3c2)cc1	i	13	24	2.5	6	0.79	1.5	x	3.0	0
CCc1[nH]nc2c1C(c1ccncc1)C(C#N)=C(N)O2 (centres undefined)	x	x	x	x	1	0.64	x	-2.8	3.0	-2
CCc1ccc(S(=O)(=O)NC(=S)Nc2ccccc2)cc1	i	22	18	3.6	0	0.71	-2.2	0.3	3.8	-6
COC(=O)Nc1nc2ccc(Sc3ccccc3)cc2[nH]1	i	-2	3	0.1	9	0.71	-2.7	0.5	4.4	14
Cc1ccnc(NC(=O)CCC(=O)N(CC(=O)NCc2ccc(F)cc2)Cc2ccccc2)c1	x	x	x	x	2	0.68	x	0.6	3.8	-21
C=CCn1c(SCC(N)=O)nnc1-c1ccccc1O	x	x	x	x	9	0.68	x	-0.3	-0.5	-5
CC(C)(C)N1CC(C(=O)Nc2cccc(Cl)c2Cl)CC1=O (centres undefined)	i	-7	-6	-0.6	-4	0.64	0.7	0.0	2.5	-5
COc1ccc(/C=C/C(=O)Nc2cc(=O)n(C)c(=O)n2C)cc1	x	x	x	x	-6	0.68	x	-1.0	-2.1	-3
CC(C)(C)c1ccc(-c2conc2N)cc1	x	x	x	x	x	0.69	x	-0.4	4.5	-21
Cc1[nH]c(=O)[nH]c(=O)c1S(=O)(=O)Nc1ccc(S(N)(=O)=O)cc1	i	7	12	-1.0	-17	0.65	-1.4	0.6	1.9	0
Cc1ccc(-c2nc3cnccn3c2Nc2ccc3c(c2)OCO3)cc1	i	-31	-68	-14	-8	0.7	17	-0.7	-29	-6
C[C@H](NC(=O)c1[nH]cnc1C(=O)Nc1ccc(Cl)cc1)C(=O)OC(C)(C)C	x	x	x	x	-13	x	x	1.7	1.0	1
CCN1C(=O)[C@H]2[C@@H](c3ccc(C)cc3)N3C(=O)N(c4cccc(Cl)c4)C(=O)[C@@]3(CC)[C@H]2C1=O	i	14	12	-3.5	-6	x	-63	0.5	10	-7
Cc1ccc(S(=O)(=O)N(C)C)cc1NC(=O)COC(=O)C1COc2ccccc2O1 (centres undefined)	i	-7	-12	3.5	-6	0.67	0.0	1.0	-0.6	0
O=C(Nc1ccc(N2CCOCC2)c(Cl)c1)c1ccccc1F	x	-4	-1	0.0	-4	0.65	x	-3.7	0.6	-4
CCOC(=O)C(C(C)C)C(N)Cc1ccc(F)cc1 (centres undefined)	i	4	0	-0.8	-8	0.69	3.7	-0.2	5.8	-1
CC(=O)N1CCc2cc(S(=O)(=O)NCC(=O)NCc3ccc(F)cc3)ccc21	i	18	10	2.6	-11	0.62	-13	-1.1	0.3	1
COC(C(=O)Nc1ccc(S(=O)(=O)Nc2cccc3ccccc23)cc1)c1ccccc1 (centres undefined)	x	x	x	x	-15	0.74	x	0.7	2.5	-3
O=C(/C=C/c1ccc(O)c([N+](=O)[O-])c1)c1ccc2ccccc2c1	i	3	9	5.4	5	0.7	-1.2	-0.7	6.9	-10
COc1ccc(-c2cn3nc(C)c(C)nc3n2)cc1OC	i	2	1	-0.6	x	0.69	-2.0	-1.8	7.8	3
O=C(COC(=O)c1ncc(Cl)c(Cl)c1Cl)NCc1ccccc1	i	2	9	-1.2	x	0.66	10	-1.8	0.1	-12
O=C(Cn1ncn2c(cc3ccccc32)c1=O)NCCC1=CCCCC1	i	0	-1	-4.5	8	0.7	-43	-0.2	-1.8	x
CC(=O)c1cccc(S(=O)(=O)Nc2ccc3nc(C)sc3c2)c1	i	-3	-7	0.0	13	0.68	-2.4	-0.8	3.2	17
COC(=O)C1=C(C)NC(C)=C(C(=O)OC(C)C)C1c1cccc2nonc12 (centres undefined)	i	-5	-5	3.5	16	x	7.5	0.5	4.6	-5
O=C(c1ccc2nc[nH]c2c1)N1CCN(c2cccc(Cl)c2)CC1	i	-21	-32	-4.3	24	0.65	1.2	0.7	4.0	-6
O=C(/C(=C/c1ccncc1)n1ccnc1)c1ccc(Cl)cc1Cl	i	x	x	x	x	0.66	3.9	x	3.9	x
CC(=O)Nc1ccc(Br)c(Cl)c1	i	-1	-7	-4.8	-10	0.64	-1.7	0.2	2.4	0
Cc1ccccc1N(C(=O)CCCC(=O)Nc1ccccn1)C(C(=O)NC1CCCC1)c1ccc(O)cc1 (centres undefined)	i	1	-9	5.5	11	0.71	0.3	-0.4	0.9	-4
CC1(C)C(=O)Nc2ccccc2N1C(=O)COc1ncnc2ccccc12	x	x	x	x	-9	0.7	x	0.6	2.6	0
O=S1(=O)CCN=C2SC3=C(CCCC3)N21	i	10	10	5.2	-19	0.69	-7.5	0.1	0.8	1
O=S(=O)(Nc1cc(Cl)ccc1-n1cncn1)c1ccccc1Cl	i	-26	-44	-3.9	x	0.67	-1.1	1.3	0.3	5
CCN(CC)C(=O)Cn1c(=O)n(Cc2ccc(F)cc2)c(=O)c2sccc21	i	6	9	2.9	1	x	3.0	-2.1	x	-4
COc1ccc(/C=N/NC(=O)C(=O)N2CCCC2)cc1	i	18	19	0.3	-10	x	-1.2	-0.2	x	-7
CCOC(=O)C1CCCN(c2nc3ccccc3nc2C(C#N)C(=O)OCCOC)C1 (centres undefined)	x	x	x	x	-5	0.77	x	0.1	3.6	2
Cc1cccc2c1NC1(CCCC1)CC2C (centres undefined)	i	-1	29	-0.6	15	0.67	3.5	-0.4	1.9	-3
CN(C)S(=O)(=O)c1cccc(NC(=O)c2ccc3c(c2)OCCO3)c1	i	-11	-4	-0.2	4	0.68	0.6	0.4	1.7	6
Cc1cc2ncn(S(=O)(=O)c3ccc(S(N)(=O)=O)cc3)c2cc1C	i	28	13	-0.2	x	0.7	-5.8	x	4.9	x
N=c1c(C(=O)NC2CCCC2)cc2c(=O)n3ccccc3nc2n1CC1CCCO1 (centres undefined)	x	-3	4	-2.4	7	0.66	-5.7	-0.9	i	x
COC(=O)[C@H]1[C@H](CCc2ccccc2)NC(=O)N(Cc2ccccc2)[C@@H]1C	i	-11	-17	0.2	-10	x	2.6	0.4	x	1
COCc1nnc(NC(=O)c2ccc(NC(C)=O)cc2)s1	x	x	x	x	-4	0.71	x	0.4	5.9	0

Structures above that have a cyano group:
SMILES	FGF22 binding	rRNA inh HTS	rRNA inh HTS OD600	rRNA inh HTS RFP	T cruzi inh	Ecoli growth	AF4-AF9 inh	Bfl-1 A1 inh	UCH37 inh	Beta cell apopt
N#C/C(=C\c1ccc(N2CCCCC2)o1)C(=O)Nc1cccc(Br)c1	x	x	x	x	27	0.74	x	0.1	4.0	-2
CCc1[nH]nc2c1C(c1ccncc1)C(C#N)=C(N)O2 (centres undefined)	x	x	x	x	1	0.64	x	-2.8	3.0	-2
CCOC(=O)C1CCCN(c2nc3ccccc3nc2C(C#N)C(=O)OCCOC)C1 (centres undefined)	x	x	x	x	-5	0.77	x	0.1	3.6	2

Assay outcomes: PubChem BioAssay, several laboratories
